Vaccinia inh: blocks a specific stage of Vaccinia orthopoxvirus infection | Vaccinia-infected cells, mCherry/Venus stage reporter fluorescence; active compounds read low; some inactives read as strong as hits | activity change (mCherry), % (no concentration beside the values) | hit rate 0.01% among 89,000;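 active = mCherry past -33% and 40 or more points under the early reporter, replicates agreeing; inconclusive = past -33% without that gap or agreement; tested in A549 cells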;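 also: scaled between vehicle wells and reference inhibitor wells; 23 nL library stock went into each well; one replicate is shown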
Vaccinia inh Venus: second read-out of Vaccinia inh, no call of its own (marks repeat the call); activity change (Venus), %; measured here: Venus reporter, other viral stage;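 negative = less Venus signal; first of two replicates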
Starred values were filed as active, the others as inactive; ? = inconclusive; . = no result given; & = joins results of further samples. An excerpt; count on the stated rates, not on these rows.

SMILES | Vaccinia inh | Vaccinia inh Venus
CCCC(=O)Nc1ccc2c(c1)OC[C@H](C)N(C)C[C@@H](C)[C@@H](OC)CN(C)C2=O | -2 | 0
CC(=O)N1[C@H](CO)[C@H](c2ccccc2)[C@@H]1CN(C(=O)c1ccccc1)C(C)C | 4 | 8
COc1cccc(S(=O)(=O)N(C)C[C@H]2OCc3ccccc3-c3c(n(C)c4ccccc34)C(=O)N([C@H](C)CO)C[C@@H]2C)c1 | ? | .
O=C(C1CC1)N1CCCCN2[C@H](C1)[C@H](c1ccc(C#CC3CC3)cc1)[C@@H]2CO | -29 | -15
COc1cccc(C(=O)Nc2ccc3c(c2)C(=O)N(C)[C@@H]2CC[C@@H](CC(=O)N[C@H](C)c4ccccc4)O[C@@H]2CO3)c1 | -3 | -2
CC(=O)N[C@@H]1C=C[C@@H](CC(=O)NCC2CCCCC2)O[C@@H]1CO | 8 | 8
O=C(C[C@H]1C[C@@H]2c3cc(NC(=O)C4CCC4)ccc3O[C@@H]2[C@@H](CO)O1)NCc1ccc(-c2ccccc2)cc1 | ? | .
COc1cccc(-c2ccc(C3[C@@H]4CN(C(=O)C5CCC5)C[C@H]3N4)cc2)c1 (stereo partly drawn) | ? | 0
C[C@H]1CN([C@@H](C)CO)C(=O)c2ccccc2-c2ccccc2CO[C@@H]1CN(C)S(=O)(=O)c1cn(C)cn1 | 32 | 13
CN1C(=O)c2cc(NC(=O)Cc3cccs3)ccc2OC[C@H]2O[C@@H](CC(=O)N[C@@H]3CCN(Cc4ccccc4)C3)CC[C@@H]21 | -1 | 8
C[C@@H]1CN([C@H](C)CO)C(=O)c2cc(NC(=O)CCN3CCOCC3)ccc2O[C@@H]1CN(C)C(=O)Nc1ccc(F)cc1 | 7 | 4
Cc1noc(C)c1NC(=O)Nc1cccc2c1O[C@@H](CN(C)S(=O)(=O)c1cccs1)[C@H](C)CN([C@H](C)CO)C2=O | 13 | 6
CC(C)CC#Cc1cnc2c(c1)C(=O)N([C@@H](C)CO)C[C@@H](C)[C@@H](CN(C)C(=O)c1ccccc1)O2 | 5 | 3
C[C@H]1CN([C@@H](C)CO)C(=O)CCCn2cc(nn2)CO[C@@H]1CN(C)C(=O)Nc1ccc(-c2cccs2)cc1 | -10 | -8
COc1ccc(NC(=O)N(C)C[C@@H]2OCc3ccccc3-c3ccccc3C(=O)N([C@H](C)CO)C[C@H]2C)c(OC)c1 | 8 | 11
CC(C)NC(=O)N(C)C[C@H]1Oc2c(NC(=O)NC3CCCCC3)cccc2C(=O)N([C@H](C)CO)C[C@H]1C | 6 | 10
C[C@H]1CN([C@@H](C)CO)C(=O)c2cc(NC(=O)CCN3CCOCC3)ccc2O[C@@H]1CN(C)S(=O)(=O)c1cn(C)cn1 | 12 | 8
CC(C)NC(=O)N[C@H]1C=C[C@@H](CC(=O)NCc2ccc(Oc3ccccc3)cc2)O[C@@H]1CO | 5 | 10
CN1C(=O)c2cc(NC(=O)c3ccc(F)cc3)ccc2OC[C@@H]2O[C@H](CC(=O)NCC3CC3)CC[C@@H]21 | -18 | -6
C[C@H](CO)N1C[C@H](C)[C@H](CN(C)C(=O)Cc2cccnc2)Oc2cc(C#Cc3ccccc3F)ccc2S1(=O)=O | -31 | -14

Entries of single compounds, quoted from the list:
Results for COc1cccc(C(=O)Nc2ccc3c(c2)C(=O)N(C)[C@@H]2CC[C@@H](CC(=O)N[C@H](C)c4ccccc4)O[C@@H]2CO3)c1 → Vaccinia inh: -3; Vaccinia inh Venus: -2
Results for O=C(C[C@H]1C[C@@H]2c3cc(NC(=O)C4CCC4)ccc3O[C@@H]2[C@@H](CO)O1)NCc1ccc(-c2ccccc2)cc1 → Vaccinia inh: ?; Vaccinia inh Venus: .

The main list resumes with the five entries that preceded the break.
SMILES | Vaccinia inh | Vaccinia inh Venus
CC(C)NC(=O)N(C)C[C@H]1Oc2c(NC(=O)NC3CCCCC3)cccc2C(=O)N([C@H](C)CO)C[C@H]1C | 6 | 10
C[C@H]1CN([C@@H](C)CO)C(=O)c2cc(NC(=O)CCN3CCOCC3)ccc2O[C@@H]1CN(C)S(=O)(=O)c1cn(C)cn1 | 12 | 8
CC(C)NC(=O)N[C@H]1C=C[C@@H](CC(=O)NCc2ccc(Oc3ccccc3)cc2)O[C@@H]1CO | 5 | 10
CN1C(=O)c2cc(NC(=O)c3ccc(F)cc3)ccc2OC[C@@H]2O[C@H](CC(=O)NCC3CC3)CC[C@@H]21 | -18 | -6
C[C@H](CO)N1C[C@H](C)[C@H](CN(C)C(=O)Cc2cccnc2)Oc2cc(C#Cc3ccccc3F)ccc2S1(=O)=O | -31 | -14
C[C@@H]1CN([C@H](C)CO)C(=O)c2cc(NC(=O)Nc3ccc4c(c3)OCO4)ccc2O[C@@H](C)CCCCO[C@H]1CN(C)S(=O)(=O)c1cccs1 | -4 | -6
C[C@@H]1CN([C@@H](C)CO)C(=O)c2cc(NC(=O)CCN3CCOCC3)ccc2O[C@H]1CN(C)Cc1ccc(C(=O)Nc2ccccc2N)cc1 | 11 | 2
COc1ccc2c3c([nH]c2c1)[C@H](CO)N(C(=O)Nc1ccc(F)cc1)CC31CCN(Cc2cc(F)ccc2F)CC1 | ? | .
C[C@@H]1CN([C@@H](C)CO)C(=O)CCCn2nncc2CO[C@@H]1CN(C)C(=O)Nc1ccccc1F | 2 | 2
C[C@@H]1CN([C@@H](C)CO)C(=O)CCCn2nncc2CO[C@@H]1CN(C)Cc1ccccc1 | 1 | 3
C[C@H](CO)N1C[C@H](C)[C@H](CN(C)C(=O)Nc2ccc(C(F)(F)F)cc2)OCCCC[C@H](C)Oc2ccc(NC(=O)Nc3ccc4c(c3)OCO4)cc2C1=O | 11 | 5
CCS(=O)(=O)Nc1ccc2c(c1)C(=O)N(C)C[C@H](OC)[C@@H](C)CN(CCC(F)(F)F)[C@H](C)CO2 | -24 | -22
COc1cc(CN2[C@@H]3CNC[C@H]2C3c2ccc(-c3cccnc3)cc2)cc(OC)c1 (stereo partly drawn) | 3 | -3
O=C(C[C@@H]1CC[C@H](NS(=O)(=O)c2ccccc2)[C@H](CO)O1)NCc1ccccc1F | 10 | 14
O=C(Nc1ccc(F)cc1)N1CCCCN2[C@H](CO)[C@H](c3ccc(-c4ccncc4)cc3)[C@H]2C1 | -14 | -22
O=C(C1CCCC1)N1[C@H](CO)[C@H]2c3ccccc3N(S(=O)(=O)c3ccccc3)C[C@H]21 | 8 | -5
C[C@H](CO)N1C[C@H](C)[C@H](CN(C)S(=O)(=O)c2ccc(Cl)cc2)OCCCC[C@H](C)Oc2ccc(NC(=O)NC3CCCCC3)cc2C1=O | -23 | -13
CCC(=O)N(C)C[C@@H]1Oc2cc(-c3ccccc3F)ccc2S(=O)(=O)N([C@@H](C)CO)C[C@@H]1C | 18 | 10
COc1cccc(NC(=O)C[C@H]2CC[C@H]3[C@H](COc4ccc(NC(=O)C5CC5)cc4C(=O)N3C)O2)c1 | 1 | 5
C[C@H](CO)N1C[C@H](C)[C@H](CN(C)C(=O)Nc2ccc3c(c2)OCO3)Oc2ccc(NS(=O)(=O)c3ccc(F)cc3)cc2C1=O | 12 | 9
Cc1ccc(S(=O)(=O)N[C@@H]2CC[C@@H](CC(=O)NC3CCCCC3)O[C@@H]2CO)cc1 | 0 | 10
CO[C@@H]1CN(C)C(=O)c2ccc(NC(=O)C3CCOCC3)cc2OC[C@@H](C)N(CC2CC2)C[C@H]1C | 11 | 14
CC(C)NC(=O)N(C)C[C@@H]1Oc2cc(-c3cccnc3)ccc2S(=O)(=O)N([C@H](C)CO)C[C@H]1C | 8 | -2
O=C(C[C@@H]1C[C@H]2c3cc(NC(=O)C4CCOCC4)ccc3O[C@H]2[C@@H](CO)O1)NCc1ccccn1 | 11 | 4
CC(C)[C@H](C)NC(=O)N(C)C[C@@H]1OCc2ccccc2-c2c(n(C)c3ccccc23)C(=O)N([C@H](C)CO)C[C@@H]1C | -10 | -9
C[C@H]1CN([C@@H](C)CO)C(=O)Cc2cc(NC(=O)C3CCCCC3)ccc2O[C@@H]1CN(C)Cc1ccc(Oc2ccccc2)cc1 | ? | .
COc1ccc(C#Cc2cnc3c(c2)C(=O)N([C@H](C)CO)C[C@H](C)[C@H](CN(C)C(=O)Nc2ccc4c(c2)OCO4)O3)cc1OC | -21 | -16
CCCNC(=O)N1C[C@@H](C)[C@@H](OC)CN(C)C(=O)c2cc(NC(C)=O)ccc2OC[C@H]1C | 6 | 6
CCCN1C[C@H](C)[C@@H](OC)CN(C)C(=O)c2ccc(NC(=O)c3ccccc3)cc2OC[C@@H]1C | -21 | -14
CO[C@@H]1CC[C@@H]2CCN(C)C(=O)CCCN(C)C(=O)c3cccc(C#N)c3OC[C@@H]1O2 | 19 | 13
O=C(C[C@H]1C[C@@H]2c3cc(NC(=O)NC4CCCC4)ccc3O[C@@H]2[C@@H](CO)O1)NC1CCCCC1 | 18 | 6
C[C@@H]1CN([C@@H](C)CO)C(=O)c2cc(NC(=O)C3CC3)ccc2O[C@@H]1CN(C)S(=O)(=O)c1cccs1 | 3 | -5
CCC(=O)N1CCC2(CC1)CN(S(C)(=O)=O)[C@H](CO)c1c2c2ccc(OC)cc2n1C | 21 | 22
CC(C)CC#Cc1ccc2c(c1)O[C@@H](CN(C)Cc1cccnc1)[C@H](C)CN([C@@H](C)CO)S2(=O)=O | ? | .
C[C@H](CO)N1C[C@H](C)[C@@H](CN(C)Cc2ccc(C(=O)O)cc2)Oc2ncc(-c3ccc(C(=O)N(C)C)cc3)cc2C1=O | 23&29 | 11&12
C[C@H]1CN([C@@H](C)CO)C(=O)Cc2cc(NC(=O)CCC(F)(F)F)ccc2O[C@@H]1CN(C)S(=O)(=O)c1cccs1 | 6 | 7
O=S(=O)(c1ccccc1F)N1CCCCN2[C@H](CO)[C@H](c3ccc(-c4cncnc4)cc3)[C@@H]2C1 | 8 | 5
CCCNC(=O)N(C)C[C@@H]1Oc2ncc(C#C[C@H](C)O)cc2C(=O)N([C@@H](C)CO)C[C@@H]1C | 14 | 15
COc1ccc(-c2cnc3c(c2)C(=O)N([C@@H](C)CO)C[C@H](C)[C@@H](CN(C)Cc2ccccc2)O3)cc1 | -18 | -20
CO[C@@H]1CN(C)C(=O)c2cc(NS(=O)(=O)CC(F)(F)F)ccc2OC[C@H](C)N(Cc2ccccn2)C[C@H]1C | 11 | 10
C[C@H]1CN([C@@H](C)CO)S(=O)(=O)c2ccc(C#CCN(C)C)cc2O[C@H]1CN(C)C(=O)CC1CC1 | 4 | 12
O=C(N[C@H]1CC[C@H](CCNS(=O)(=O)c2ccc(F)cc2)O[C@H]1CO)c1cccnc1 | -4 | -6
C[C@H]1CN([C@@H](C)CO)C(=O)c2cc(-c3cccc(F)c3)cnc2O[C@H]1CN(C)C(=O)c1cccc(F)c1 | 8 | 0
C[C@@H]1CN([C@@H](C)CO)C(=O)Cc2cc(NS(C)(=O)=O)ccc2O[C@@H]1CN(C)Cc1ccc(-c2ccccc2)cc1 | ? | .
CN1C(=O)c2cc(NC(=O)C3CCCC3)ccc2OC[C@@H]2O[C@H](CC(=O)NCCc3ccncc3)CC[C@@H]21 | 14 | -3
N#C[C@@H]1[C@@H](c2ccc(-c3cccc(F)c3)cc2)[C@H](CO)N1C(=O)NC1CCCC1 | ? | .
C[C@@H]1CN([C@@H](C)CO)C(=O)Cc2cc(NC(=O)CCCCCC(=O)Nc3ccccc3N)ccc2O[C@@H]1CN(C)C(=O)NC1CCCCC1 | -6 | 13
C[C@H]1CN([C@@H](C)CO)C(=O)c2cc(-c3cccnc3)cnc2O[C@H]1CN(C)Cc1ccc(-c2ccccc2)cc1 | -29 | -33
Cc1ccccc1S(=O)(=O)N1[C@@H](C#N)[C@@H](c2ccc(-c3ccc(F)cc3)cc2)[C@@H]1CO | ? | .
C[C@@H]1CN([C@@H](C)CO)C(=O)c2cc(NC(=O)CCCN(C)C)ccc2O[C@@H]1CN(C)C(=O)Nc1cccc2ccccc12 | 23 | 18
C[C@@H]1CN([C@@H](C)CO)C(=O)c2cc(NS(=O)(=O)c3cccs3)ccc2O[C@H]1CN(C)CC1CC1 | 7 | 7
C[C@@H](O)C#Cc1ccc([C@H]2[C@H](CO)N3CCCCN(C(=O)Nc4ccccc4)C[C@@H]23)cc1 | 6 | 0
C[C@H]1CN([C@@H](C)CO)C(=O)c2cccc(NS(=O)(=O)c3ccc(Cl)cc3)c2O[C@H]1CN(C)Cc1ccc(C(=O)O)cc1 | 13 | 6
C[C@H](CO)N1C[C@H](C)[C@@H](CN(C)Cc2ccccc2)Oc2cc(/C=C/c3ccccc3)ccc2S1(=O)=O | ? | .
O=C(CC1CC1)Nc1ccc2c(c1)[C@@H]1C[C@H](CC(=O)N3CCc4ccccc4C3)O[C@H](CO)[C@@H]1O2 | 7 | 2
COc1cccc(NC(=O)C[C@@H]2CC[C@H]3[C@H](COc4ccc(NC(=O)c5ccccc5F)cc4C(=O)N3C)O2)c1 | -30 | -17
CNC[C@@H]1Oc2cc(C#Cc3cccnc3)ccc2S(=O)(=O)N([C@@H](C)CO)C[C@H]1C | 19 | 13
C[C@H](CO)N1C[C@H](C)[C@@H](CN(C)C)Oc2c(NC(=O)Nc3ccccc3)cccc2C1=O | 7 | -5
O=C(C[C@@H]1CC[C@H](NS(=O)(=O)c2ccccc2)[C@@H](CO)O1)NCCN1CCCCC1 | 3 | 4
CC(C)OC(=O)N(C)C[C@@H]1OCc2cn(nn2)CCCC(=O)N([C@@H](C)CO)C[C@H]1C | 14 | 19
CC(C)C[C@@H]1NC(=O)[C@@H]2C[C@H](C(=O)O)[C@H](c3cccc(OCCO)c3)N2C1=O | 6 | -7
C[C@H]1CN([C@@H](C)CO)C(=O)c2cc(C3=CCCCC3)cnc2O[C@H]1CN(C)C(=O)Nc1ccc(F)cc1 | -21 | -22
